Screens from PubChem.
RE007 growth inh = less growth of the S. pombe RE007 Vpr strain; S. pombe RE007 Vpr strain, BacTiter-Glo ATP luminescence, 24 h; control for the full effect not named in the record; Potency, µM (series often up to 92.2 µM), for inactives: at the highest dose activity change, negative = less growth; 360,000 compounds, 0.21% hits; AID 651644; active = well fitted falling curve with a large enough effect; inconclusive = small, poorly fitted or top-dose-only effect; inactive = no such curve, though single readings can be large or run the other way;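 also: % is scaled to controls: 0 for no effect and ±100 for the full control effect; nearly all actives have a fitted effect of over 50% in size; the assay follows cell death caused by Vpr and the record does not say whether a fall means rescue or toxicity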
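Fission yeast RE007 carrying one integrated HIV-1 vpr copy, seeded at OD 0.01 in PMG+AL medium with 23 nL pinned compound. Grown 24 h at 30 degrees; viability read by BacTiter-Glo luminescence after 5 min.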
NS1 function inh = inhibitors of influenza NS1 protein function; S. cerevisiae slowed by influenza A NS1, growth recovery by OD600; Potency, µM (top dose mostly 46.1 µM), for the others: top-dose activity, positive = more growth; 270,000 compounds, 0.4% hits; also: actives are rising curves; nearly all actives have a fitted effect of over 50% in size
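Growth recovery, yeast-based: influenza A NS1 expressed in S. cerevisiae causes slow growth, and suppressors are detected by OD600. The parent strain without NS1 is used as positive control.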
Cruzain inh Det = inhibitors of Trypanosoma cruzi cruzain with detergent | Potency, µM, for the others: max response, negative = inhibition, hits mostly inhibitors | P25779 | AID 1478 | 200,000 compounds, 0.43% hits | purified cruzain, Z-FR-AMC fluorescence, 0.01% Triton; active = well fitted curve in the direction sought with a large enough effect; inconclusive = small, poorly fitted or top-dose-only effect, or another doubt; inactive = no such curve, though single readings can be large; an effect the other way counts as inactive or inconclusive;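 also: plate controls were neutral wells for no effect and buffer without enzyme for full effect; nearly all actives have a fitted effect of over 40% in size; top concentration of the series not given in the record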
Target sequence (P25779 123-467 limits assumed): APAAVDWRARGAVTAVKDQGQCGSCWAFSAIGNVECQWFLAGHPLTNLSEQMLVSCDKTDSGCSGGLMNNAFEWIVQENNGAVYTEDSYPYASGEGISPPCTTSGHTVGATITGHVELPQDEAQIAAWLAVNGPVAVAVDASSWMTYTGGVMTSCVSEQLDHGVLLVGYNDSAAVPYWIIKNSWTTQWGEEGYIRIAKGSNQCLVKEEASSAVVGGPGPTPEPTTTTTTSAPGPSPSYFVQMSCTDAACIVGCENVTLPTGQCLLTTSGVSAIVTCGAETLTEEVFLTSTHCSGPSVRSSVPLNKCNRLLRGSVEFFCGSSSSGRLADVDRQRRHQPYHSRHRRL
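Enzyme 1.5 nM, Z-FR-AMC 2 uM, NaOAc 100 mM pH 5.5, DTT 5 mM, Triton X-100 0.01%; 15 min RT compound preincubation; kinetic ex360/em450, 60 s delta.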
Cruzain inh noDet = inhibitors of Trypanosoma cruzi cruzain without detergent | 200,000 compounds, 2.3% hits | Potency, µM, for inactives: max response, negative = inhibition, usual class: inhibitors | purified cruzain, Z-FR-AMC fluorescence, no detergent; active = well fitted curve in the direction sought with a large enough effect; inconclusive = small, poorly fitted or top-dose-only effect, or another doubt; inactive = no such curve, though single readings can be large; an effect the other way counts as inactive or inconclusive;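 also: plate controls were enzyme without inhibitor for no effect and buffer without enzyme for full effect; nearly all actives have a fitted effect of over 40% in size; top concentration of the series not given in the record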
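Purified cruzain at 1.5 nM, pre-incubated 15 min with compound at room temperature in 100 mM sodium acetate pH 5.5, 5 mM DTT, 0.00005% Triton X-100. Reaction started with 2 uM Z-FR-AMC; AMC fluorescence increase over 60 s gives rate.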
Lassa entry inh = inhibitors of Lassa virus binding or cell entry | Lassa virus pseudotype entry inhibition, cell reporter; control for the full effect not named in the record | 300,000 compounds, 1.2% hits | Potency, µM (top dose mostly 37.9 µM), for the others: top-dose activity change, negative = inhibition, most hits filed as inhibitors; active means well fitted inhibition curve with a large enough effect; inconclusive means small, poorly fitted or top-dose-only effect, or effect the other way; inactive means flat fitted curve, though single readings scatter; tested in HEK293 cells; also: % is scaled to controls: 0 for no effect and ±100 for the full control effect; nearly all actives have a fitted effect of over 50% in size; luciferase read-out
StopGo reporter = FMDV 2A StopGo reporter, luciferase signal | 410,000 compounds, 1.2% hits | Potency, µM (titrated, usually from 57.9 µM), for inactives: at the top dose signal change, negative = less light | human cells with a luciferase reporter of 2A StopGo recoding; control for the full effect not named in the record | AID 1159524; active = well fitted falling curve with a large enough effect; inconclusive = small, poorly fitted or top-dose-only effect; inactive = no such curve, though single readings can be large or run the other way; tested in HEK293T cells; also: % is scaled to controls: 0 for no effect and ±100 for the full control effect; nearly all actives have a fitted effect of over 45% in size; luciferase light after 4 h
SARS PLpro yeast = blocks SARS-CoV papain-like protease in a yeast assay | S. cerevisiae expressing SARS-CoV PLpro, growth rescue; control for the full effect not named in the record | Potency, µM (highest dose often 32.9 µM), inactives show at the highest dose activity, positive = growth rescue | 330,000 compounds, 0.19% hits; also: 0% is about no effect; nearly all actives have a fitted effect of over 55% in size; growth read by luminescence after 48 h
MARV entry inh = Marburg virus entry inhibition | Marburg virus pseudotyped entry inhibition, cell reporter; control for the full effect not named in the record; about a third of the inactives were read at about 46 µM | 300,000 compounds, 1.8% hits | Potency, µM (highest dose often 37.8 µM), without a hit: top-dose activity change, negative = inhibition, usual class: inhibitors; active = well fitted inhibition curve with a large enough effect; inconclusive = small, poorly fitted or top-dose-only effect, or effect the other way; inactive = flat fitted curve, though single readings scatter; tested in HEK293 cells; about a fifth of its hits are not listed in these tables; also: % is scaled to controls: 0 for no effect and ±100 for the full control effect; luciferase read-out
An asterisk follows results filed as active; ? = inconclusive; / = not tested or not shown; & = joins results of further samples; [ ] = remark or other dose. Unless noted, calls follow the shape of the dose curve; as a rule, active means well fitted rising curve with a large enough effect; inconclusive means small, poorly fitted or top-dose-only effect; inactive means no such curve, though single readings can be large or run the other way. Potency is read from the fitted curve at half-maximal effect.

SMILES	RE007 growth inh	NS1 function inh	Cruzain inh Det	Cruzain inh noDet	Lassa entry inh	StopGo reporter	SARS PLpro yeast	MARV entry inh
CCc1nnc(NC(=O)CCC(=O)N2CCC(Cc3ccccc3)CC2)s1	-6%	-6%	/	/	?	7%	1%	11%[46.1 µM]
CCn1c(N)c(C(=O)Nc2ccccc2C(=O)OC)sc1=S	-4%	-124%	-2.9%	-3%	-7%	12%	0%	7%
CCOC(=O)Cc1csc(NC(=O)C(NC(=O)C2CCCCC2)C(C)C)n1 (stereo not drawn)	4%	/	/	/	16%[46.1 µM]	-11%	-4%	12%[46.1 µM]
O=c1cc(-c2ccc([N+](=O)[O-])cc2)c2cc3c(cc2[nH]1)OCCO3	98%	/	/	/	-26%[46.1 µM]	-14%	0%	?
Cc1cc(=O)[nH]c(SCC(=O)N2CCCc3ccccc32)n1	1%	-2%	-0.2%	-14%	15%	5%	5%	17%
Cc1cccc(NC(=O)CN2C(=O)C(c3ccc(F)cc3)=NC23CCCCCC3)c1C	/	/	-7.0%	-3%	-22%[46.1 µM]	-32%	/	?
COc1ccc(OCC(=O)NNC(=O)c2ccccc2OCc2c(C)noc2C)cc1	-4%	/	/	/	-1%	-7%	0%	15%[46.1 µM]
CC(=O)N1CCN(S(=O)(=O)c2cccc(C(=O)Nc3ccc(C)cn3)c2)CC1	4%	-10%	/	/	-13%	4%	-3%	16%
C=C1CC2C3CC[C@@]4(OCOC45COCO5)[C@@]3(C)C(O)CC2[C@@]2(C)CCC(=O)C=C12 (stereo partly drawn)	/	7%	-1.9%	25%	?	0%	-8%	?
NC(=O)N/N=C/c1ccc(N2CCOCC2)s1	5%	5%	-11%	-17%	?	-4%	2%	-5%
O=c1c2ccccc2cnn1Cc1ccc(Cl)c(Cl)c1	?	-14%	/	/	/	3%	0%	?
CSc1nc(C)c(CCOCc2ccccc2)c(=O)[nH]1	24%	-2%	5.1%	-8%	-11%	-14%	1%	-17%
FC(F)(F)c1ccc(-c2nnc(-c3ccccn3)c(-c3ccccn3)n2)nc1	-12%	-1%	/	/	-1%	5%	1%	16%
CCCN1CCN(CCCNC(=O)c2cnn(-c3ccc(C)cc3)c2-n2cccc2)CC1	/	/	-5.3%	7%	6%[46.1 µM]	-20%	/	/
O=S(=O)(NCCn1cccc1)c1ccc2ccccc2c1	-22%	/	/	/	0%[46.1 µM]	60%[activator]	5%	11%[46.1 µM]
C[n+]1c(-c2ccccc2)sc([S-])c1-c1ccccc1	-10%	/	/	/	1%	-21%	/	-24%[46.1 µM]
CCOC(=O)N1CCN(C(=O)CN(c2cccc(Cl)c2C)S(=O)(=O)c2ccc(C)cc2)CC1	/	/	0.9%	?	?	3%	/	?
O=C1C(=Cc2ccco2)CCCC1=Cc1ccco1	-6%	/	/	/	-12%[46.1 µM]	21%	/	?
CC(=O)c1ccc(OCC(O)CN(C)CCOc2ccc(Br)cc2)cc1 (stereo not drawn)	3%	-7%	/	/	?	?	-1%	8.9µM*
Fc1ccc(COc2ccc(/C=N/n3cnnc3)cc2)cc1	15%	-148%	-0.3%	7%	9%	-12%	-9%	11%
O=C(Nc1nnc(-c2ccco2)s1)C1CC1	0%	-8%	-1.1%	-6%	1%	52%[activator]	10%	14%
O=C(CN1CCN(Cc2ccccc2)CC1)N/N=C/c1cccs1	0%	10%	/	/	/	20%	1%	1%
COc1ccccc1NC(=O)CSC1=NC(=O)C(Cc2ccccc2)C(=O)N1 (stereo not drawn)	0%	9%	/	/	-23%[46.1 µM]	-7%	1%	0%[46.1 µM]
O=C(NNC(=O)C1CC=CCC1)c1ccccc1Cl (stereo not drawn)	7%	6%	/	/	5%	60%[activator]	-5%	?
CCCCn1c(C)c(C(=O)O)c2cc(OC)c3ccccc3c21	2%	-2%	/	/	-2%[46.1 µM]	2%	1%	1%[46.1 µM]

Three records picked at random from the list so far, as already listed:
SMILES	RE007 growth inh	NS1 function inh	Cruzain inh Det	Cruzain inh noDet	Lassa entry inh	StopGo reporter	SARS PLpro yeast	MARV entry inh
C[n+]1c(-c2ccccc2)sc([S-])c1-c1ccccc1	-10%	/	/	/	1%	-21%	/	-24%[46.1 µM]
CCn1c(N)c(C(=O)Nc2ccccc2C(=O)OC)sc1=S	-4%	-124%	-2.9%	-3%	-7%	12%	0%	7%
O=S(=O)(NCCn1cccc1)c1ccc2ccccc2c1	-22%	/	/	/	0%[46.1 µM]	60%[activator]	5%	11%[46.1 µM]

(next part)
SMILES	RE007 growth inh	NS1 function inh	Cruzain inh Det	Cruzain inh noDet	Lassa entry inh	StopGo reporter	SARS PLpro yeast	MARV entry inh
Cc1ccc2c(C)cc[n+](CCCS(=O)(=O)[O-])c2c1	12%	-2%	-1.0%	-1%	?	-9%	-15%	11%
O=C1/C(=C\c2ccco2)NC(=S)N1c1ccccc1	-4%	5%	/	/	?	3%	-1%	?
Cc1ccc(N(CC(=O)N2CCc3ccccc32)S(=O)(=O)c2cccs2)cc1	15%	15%	4.1%	?	-18%	/	-8%	?
Cc1nn(CC(=O)NCC(C)c2ccccc2)c(=O)c2cc3occc3n12 (stereo not drawn)	20%	-1%	/	/	3%[46.1 µM]	22%	3%	1%[46.1 µM]
CS(=O)(=O)Nc1ccc(C(=O)Nc2ccc(S(=O)(=O)N3CCCC3)cc2)cc1	-12%	/	/	/	1%	0%	-6%	?
CS(=O)(=O)N(Cc1ccccc1)c1ccc(C(=O)NCCSc2ccccn2)cc1	2%	-19%	-1.5%	4%	?	?	1%	?
Cc1ccc(NC(=O)c2nc[nH]c2C(=O)N2CCCCC2)c(C(=O)c2ccccc2)c1	12%	-1%	-1.6%	7%	?	30%[activator]	6%	-14%
COc1ccc(C2C(C(=O)N3CCOCC3)=C(C)NC3=C2C(=O)CC(C)(C)C3)c(OC)c1 (stereo not drawn)	13%	-9%	-2.3%	-9%	12%	18%	?	11%&11%
O=[N+]([O-])c1cccc(/C=N/Nc2cc(Cl)nc(-c3ccccc3)n2)c1	17%	1%	0.8%	?	10µM*	?	-25%	-3%[46.1 µM]
O=C(Nc1cccc(NC(=O)c2cccc([N+](=O)[O-])c2)n1)c1cccc([N+](=O)[O-])c1	-4%	10%	/	/	/	-27%	2%	/
Cc1cn2c(-c3ccc(Cl)cc3)nnc2s1	-15%	-89%	1.6%	2%	/	-11%	-12%	/
CCOc1cc(NC(=S)Nc2cccc(OC)c2)c(OCC)cc1NC(=O)C1CC1	-21%	25%	-9.1%	-16%	?	26%	-7%	-21%
CCOc1ccc(Nc2ncnc3c2cnn3C)cc1	10%	-22%	/	/	-9%[46.1 µM]	24%	-3%	12%[46.1 µM]
COc1ccccc1-c1cc(C(=O)N2CCN(c3ccccc3OC)CC2)no1	7%	-43%	-5.4%	?	?	-3%	-15%	?
COc1ccc(/C=C/C(=O)OCC(=O)NCC2CCCO2)cc1 (stereo not drawn)	0%	2%	-2.9%	-3%	-7%	-5%	21%	-9%
Cc1n[nH]c(=S)n(/N=C/c2cccs2)c1=O	26%	6%	/	/	?	5%	1%	13%[46.1 µM]
Cc1noc(C)c1CSc1nc2ccccc2c(=O)n1-c1ccccc1	23%	-32%	-4.2%	-13%	?	?	-7%	?
COc1cccc(C2NC(=O)NC(C)=C2C(=O)Nc2cc(OC)ccc2OC)c1 (stereo not drawn)	13%	2%	1.8%	4%	-25%	12%	4%	1%
CC(=O)N=c1c(C#N)cc2c(=O)n3cccc(C)c3nc2n1Cc1ccco1	0%	4%	/	/	/	-4%	1%	/
O=C(CCCN1C(=O)c2ccccc2C1=O)Nc1nnc(C2CC2)s1	-1%	/	/	/	2%[46.1 µM]	13%	-2%	-4%[46.1 µM]
Cc1nc2nc(SCC(=O)NCCCN3CCCC(C)C3)nn2c(C)c1Cc1ccccc1Cl (stereo not drawn)	0%	-5%	/	/	/	-23%	-3%	/
Cc1n[nH]c(=O)c2c1nnn2Cc1ccc(F)cc1	7%	1%	/	/	/	-21%	4%	/
CC(=O)Nc1ccc(S(=O)(=O)NCCC(=O)OCC(=O)c2ccccc2)cc1	-8%	/	/	/	2%	3%	2%	1%

Structures listed so far that contain fluorine, in the order listed:
SMILES	RE007 growth inh	NS1 function inh	Cruzain inh Det	Cruzain inh noDet	Lassa entry inh	StopGo reporter	SARS PLpro yeast	MARV entry inh
Cc1cccc(NC(=O)CN2C(=O)C(c3ccc(F)cc3)=NC23CCCCCC3)c1C	/	/	-7.0%	-3%	-22%[46.1 µM]	-32%	/	?
FC(F)(F)c1ccc(-c2nnc(-c3ccccn3)c(-c3ccccn3)n2)nc1	-12%	-1%	/	/	-1%	5%	1%	16%
Fc1ccc(COc2ccc(/C=N/n3cnnc3)cc2)cc1	15%	-148%	-0.3%	7%	9%	-12%	-9%	11%
Cc1n[nH]c(=O)c2c1nnn2Cc1ccc(F)cc1	7%	1%	/	/	/	-21%	4%	/

Compounds were not picked by outcome. About 4.5% of those tested had a hit in this group.
